# NPYLR7 ag: mosquito NPYLR7 agonism; 270,000 tested, 0.15% active; activation, % at 10 µM; HEK293T NPYLR7/Galpha15, GCaMP6s calcium fluorescence; AID 1259423; in the data active means activation above about 40%;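 further: 0% = vehicle and 100% = reference agonist at the receptor; some compounds past the cut are filed as inactive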
# NPYLR7 ag max-min: further read-out of NPYLR7 ag, marked with its call; activation, %; measured here: Max-Min RFU normalised activation; some inactives read as strong as hits;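 span of the calcium signal over five minutes; 0% = vehicle and 100% = native peptide agonist; compound fluorescence can raise it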
# * hit, by the source's call; & = joins results of further samples.
# The first two entries, to show the layout:
# Order of values – NPYLR7 ag max-min	NPYLR7 ag
- COc1ccccc1-n1c(CNC(=O)COc2ccccc2)nnc1SCC(=O)Nc1cc(C)ccc1C
  -5	-8
- CN(Cc1nc(-c2cccnc2)no1)C(=O)c1nc2ccccc2s1
  -16	-9

# Results, from the first entry:
# Order of values – NPYLR7 ag max-min	NPYLR7 ag
- COc1ccccc1-n1c(CNC(=O)COc2ccccc2)nnc1SCC(=O)Nc1cc(C)ccc1C
  -5	-8
- CN(Cc1nc(-c2cccnc2)no1)C(=O)c1nc2ccccc2s1
  -16	-9
- O=C1CCCN1Cc1cc(Cl)c2cccnc2c1O
  -1	0
- Cc1ccc(CN(Cc2ccc(F)cc2)C(=O)CNC2CCCCC2)s1
  -17	-10
- O=C(c1ccc(CO)cc1)N1CC(c2ccncc2)C1
  2	4
- CC(C)NCc1cc(-c2ccccc2)n[nH]1
  -19	-9
- Cc1cc(C)cc(NC(=O)CSc2nncc(=O)[nH]2)c1
  -1	1
- Cc1cccc(CN(C(=O)c2csc(C)n2)C(C)C)c1
  3	7
- CN=c1scc(-c2ccc3c(c2)OCCO3)n1N=Cc1c[nH]c2ccccc12
  1	5
- COC(=O)c1sccc1NC(=O)CCN1[C@@H]2CC[C@H]1CC(O)C2 (some centres not stated)
  4	5
- COc1cc(-c2nc(C=Nc3cc(Cl)ccc3C)c(O)o2)cc(OC)c1OC
  -9	-1
- CC(C)[C@H](NC(=O)c1c(F)c(F)c(F)c(F)c1F)c1nnc2c(C(F)(F)F)cccn12
  -16	-11
- CC(C)n1c(COc2ccccc2)n[nH]c1=S
  -10	-7
- CCCCNC(=O)C1(C)CCN1Cc1ccc(OC)c2ccccc12 (configuration not stated)
  -1	3
- CC(C)c1ccc(-c2nc(C(=O)n3ncc(C#N)c3N)cs2)cc1
  -10	-8
- CCOC(=O)c1c(-c2ccc(OC)cc2)csc1NC(=O)CSc1nnc2ccccn12
  -12	-8
- O=c1cc(C(F)(F)C(F)F)oc2c1ccc1ccccc12
  6	10
- C=CCN(CC#Cc1ccccc1)C(=O)CNC
  11	-1
- O=C(Nc1ccc2c(c1)OCO2)c1cc2nc(-c3ccc(F)cc3)cc(C(F)(F)F)n2n1
  -16	-10
- O=C1/C(=C/c2ccc(-c3ccc(Br)cc3)o2)C=C(c2ccccc2)N1c1ccccc1
  7	10
- CN(Cc1ccccc1)C1CCCN(C(=O)CCn2cnnn2)C1 (configuration not stated)
  4	21
- CCCCC1=NN2C(=N)/C(=C/c3cccc(OS(C)(=O)=O)c3)C(=O)N=C2S1
  -2	-1
- CC(NC(=O)c1ccc[nH]1)c1nc(-c2ccncc2)cs1 (configuration not stated)
  10	13
- CC1CC(C)CN(S(=O)(=O)c2ccc(C(=O)NC(C)(C)C)cc2)C1 (configuration not stated)
  3	7
- CN(C)c1nc2c(c(N3CCCC(c4ncc[nH]4)C3)n1)CCCC2 (configuration not stated)
  -3	0
- CCOc1ccc(N2C(=O)c3ccccc3NC2c2ccc(OCC(N)=O)cc2)cc1 (configuration not stated)
  3	2
- CC(C)CC(NC(=O)c1cnc(Cl)cn1)c1ccccc1 (configuration not stated)
  2	3
- O=C(CCn1nnnc1CN1CCOCC1)N1CCN(c2nc3ccccc3s2)CC1
  0	9
- COCCN1CCCC[C@]2(C[C@H](CO)[C@H](c3ccccc3)N2C(=O)c2ccc(C)cc2)C1=O
  2	2
- CCc1ccc(-c2cc3c(=O)n(Cc4ccccc4C)ccn3n2)cc1
  -3	0

# The results go on:
# Order of values – NPYLR7 ag max-min	NPYLR7 ag
- Cc1ccc(C(O)(C(=O)N(C)N(C)C)c2ccc(C)cc2)cc1
  -16	-13
- CN(C)CCNC(=O)c1coc(CN(Cc2ccccc2F)CC2CC2)n1
  19	18
- CCOc1ccc(C(C2Sc3nc(C)nn3C2=O)N2CCN(c3ccccc3)CC2)cc1OC (configuration not stated)
  1	1
- O=C(CCC1CCN(C(=O)CC2=CCCCC2)CC1)Nc1ccc(F)c(Cl)c1
  4	5
- Cc1cnc2n(c1=O)C(CC(=O)Nc1ccon1)CS2 (configuration not stated)
  -4	-2
- C[C@@]1(O)CCN(C(=O)c2[nH]ncc2Cl)C[C@@H]1Cc1ccccc1
  15	16
- COc1ccc(CCN(C)c2nc(SCc3cccc(C(=O)NCc4ccncc4)c3)nc(C)c2C)cc1OC
  7	3
- CCC(CC)N(C)C(=O)c1ccc2nc(C)[nH]c2c1
  1	4
- CN(Cc1cccnc1)Cc1nc(Cc2ccccc2F)no1
  -3&-8	-1&-4
- CCc1noc(Cn2c(-c3cnccn3)noc2=O)n1
  4	8
- COC(=O)c1cnn2c1NCN(Cc1ccco1)C2
  2	2
- COCCCN(C(=O)c1ccc(NC(C)=O)s1)c1c(N)n(Cc2ccccc2)c(=O)[nH]c1=O
  -1	3
- COc1cccc(CNC(=O)CSc2nc(=O)[nH]c3c2CCC3)c1
  -5	0
- CCOCCCNC(=O)c1cc(NC(=O)Nc2c(Cl)cccc2Cl)ccc1N1CCCCC1
  12	-1
- CCOC(CNC(=O)c1sc2nc(-c3cccc([N+](=O)[O-])c3)cn2c1C)OCC
  0	5
- COCCCn1c(SCC(=O)NC(c2ccccc2)c2ccccc2)nc2ccccc2c1=O
  6	-1
- COCCCN(CC(=O)N(CCc1ccc(OC)c(OC)c1)Cc1sccc1C)C(=O)c1ccc(-c2ccccc2)cc1
  4	-4
- CCC(C)C(=O)Nc1ccc(Cl)c2cccnc12 (configuration not stated)
  -1	-1
- O=S(=O)(Nc1ccc2c(c1)OCCCO2)c1ccc2c(c1)CCC2
  8	10
- CN(CC(=O)NC1CCCCC1)S(=O)(=O)c1ccc(F)cc1
  12	17
- COc1ccc(C2c3c([nH]c(=O)c4ccccc34)N=C3C=CC=CN32)cc1 (configuration not stated)
  -4	2
- CC(C)c1nnsc1CNC(=O)C(C)n1cnc2ccccc21 (configuration not stated)
  -9	-6
- CCc1oc2ccccc2c1CN1CCN2C(=O)CNC(=O)C2C1 (configuration not stated)
  5	7
- Cc1csc(Cc2nc(-c3ccc(Br)cc3)cs2)n1
  8	10
- CCn1ccnc1CN1CCC2(CCCN(C(=O)CCc3ccccc3)C2)C1 (configuration not stated)
  0	5
- CC(=O)C1=NN(c2ccc(Cl)cc2)C(c2ccc3c(c2)OCO3)N1C(C)(C)C (configuration not stated)
  -1	-4
- Cc1ccc2[nH]cc(-c3ccc(-c4nn[nH]n4)cc3)c2c1
  12	21
- O=c1c2cnc3nc(-c4ccncc4)nn3c2ccn1Cc1cccnc1
  4	-2
- CC(C)c1cc(=O)[nH]c(-n2nc(-c3cccs3)cc2NC(=O)c2cccs2)n1
  -4	-2
- CCN(Cc1ccncc1)C(=O)c1ccc(C(C)N2CCCCC2)o1 (configuration not stated)
  0	-1

# Additional entries
# Order of values – NPYLR7 ag max-min	NPYLR7 ag
- Clc1ccc(-c2c[n+]3c(n2-c2ccccc2)CCCCC3)cc1
  16	21
- Fc1ccc(SCSc2ccccc2)cc1
  -9	-8
- CCc1noc(CN(CC)C(=O)c2ccnc(NC)c2)n1
  8	14
- O=C(Nc1ccc(-c2nc3ccccc3o2)c(O)c1)c1ccc(Cl)c([N+](=O)[O-])c1
  -20	-11
- COc1cncc(N2CC3ON=C(c4ccccc4C)C3C2)c1 (configuration not stated)
  4	7
- c1csc(-c2nc(CN3CCCC3C3CCCCC3)co2)c1 (configuration not stated)
  0	3
- Cc1cccc(Cc2nnc(CCC(=O)NCCC(c3ccc(F)cc3)c3ccco3)o2)c1 (configuration not stated)
  0	1
- O=C(NCc1ccccc1F)c1ccccc1N1CCC(NC(=O)C2CCCC2)CC1
  10	2
- Cc1cccc2c1NC1(CCN(Cc3cccc(Cl)c3)CC1)NC2=O
  16	4
- CC1Cc2ccccc2N1C(=O)Cc1cc(-c2cccs2)on1 (configuration not stated)
  3	2
- CC(C)C(=O)Nc1ccc(CNC(=O)C(C)OCc2ccccc2)cc1 (configuration not stated)
  0	3
- Cc1ccc(-c2cc(NC(=O)CCC3CCCC3)n(-c3ccccc3)n2)cc1
  3	17
- CCc1nc([C@H]2CN(C)C[C@@H]2C(=O)N2CCOc3ccccc3C2)c(C)[nH]1
  4	12
- CCOCC(=O)Nc1cc(-n2c(C)nc3ccccc3c2=O)ccc1Cl
  2	8
- COc1cc2c(cc1OC)CN(c1cc(C(=O)NCCC#N)c3ccccc3n1)CC2
  3	5
- CCCCCOc1ccc(C(=O)N2CCN(c3c(Cl)cncc3Cl)CC2)cc1OCCCCC
  -15	-8
- O=C(NCC1CC1)C1CC(=O)N(c2cccc3ccccc23)C1 (configuration not stated)
  0	2
- CCOC(=O)C1(CCc2ccccc2)CCCN(C(=O)CCN2CCCCO2)C1 (configuration not stated)
  3	3
- CC(C)CN1CCN(CC(C)C)C(C(=O)N(C)C)C1 (configuration not stated)
  -6	-3
- Cc1ccc(C(=O)CSc2ccc(-c3ccccc3)nn2)cc1
  0	2
- CCC(C(=O)NC)n1cnc(-c2ccccc2)c1-c1cnn2cccnc12 (configuration not stated)
  4	10
- CN(C(=O)Nc1ccc(Cl)cc1-n1cccc1)C1CCOCC1
  7	7
- COc1cc(F)c(NC(=O)N2CCC(O)CC2)cc1F
  4	5
- O=C(Nc1ccc(N2CCc3ccccc3C2)c(C(=O)NCCc2ccccc2)c1)c1cccc(F)c1
  6	1
- CCCCc1ccc(S(=O)(=O)N2CCN(c3cc(S(=O)(=O)NCCCN4CCOCC4)ccc3OC)CC2)cc1
  9	22
- CN(C)CCN1CC(COC(C)(C)C)Oc2ncccc2C1=O (configuration not stated)
  30	19
- O=C(NCCC1=CCCCC1)C1CC12CCN(C(=O)CCc1ccc3c(c1)OCO3)CC2 (configuration not stated)
  -5	12
- Cc1ccc(OCc2nc(C(=O)NCc3ccncc3)cs2)c(C)c1
  -2	10
- Cc1cccc(-n2ncc3c(=O)n4c(nc32)SCC4CC(=O)Nc2cc(C)ccn2)c1 (configuration not stated)
  2	3
- Cc1ccc(-n2c(SCC(=O)NC3CC3)nc3ccccc3c2=O)nc1
  10	24

# Remaining list, next part:
# Order of values – NPYLR7 ag max-min	NPYLR7 ag
- CN1C(=O)C2C(C1=O)N1C(c3cccs3)C3C(=O)N(C)C(=O)C3N1C2c1cccs1 (configuration not stated)
  -2	-1
- CN(C)CC(NC(=O)c1cccc(NS(C)(=O)=O)c1)c1ccccc1 (configuration not stated)
  5	7
- O=C(Cc1cccs1)NN=Cc1ccccc1Br
  -7	-5
- COc1cccc(N2CCN(C(=O)C3CC4(CCNCC4)CN3)CC2=O)c1 (configuration not stated)
  0	0
- CS(=O)(=O)C1(S(C)(=O)=O)CCCCC1
  3	6
- COc1ccc(CCNC(=O)c2ccc(CSc3nc(Cl)cc(N4CCN(c5ccc(Cl)cc5)CC4)n3)cc2)cc1OC
  16	9
- Cc1[nH]c(=S)sc1CC(=O)NC1CCCCC1C (configuration not stated)
  12	9
- COc1ccc(CNc2ccc3nc(C)[nH]c3c2)cc1
  13	13
- COCC(=O)Nc1ccc2c(c1)N(C(=O)c1cccs1)CC2
  6	3
- O=C(Cn1cc(-c2ccccc2)c(N2CCOCC2)n1)Nc1ccc(Cl)cc1
  -10	-10
- CC(C)(C)NC(=O)CSc1ncn[nH]1
  5	5
- O=C(CSc1nc2[nH]ncc2c(=O)n1-c1cccc2ccccc12)NC1CCCCC1
  24	15
- N#CCCn1cc(C=C(C#N)C(=O)O)c(-c2ccc(F)cc2)n1
  -1	5
- O=C(c1ccc(F)c(F)c1)N1CCN(Cc2ccc(-c3noc(-c4cccnc4)n3)cc2)CC1
  10	8
- CC1(C)O[C@@H]2C[C@@](OCc3ccc(C#N)cc3)(C(=O)NCCN3CCCC3)CC(OCc3cccc(C(F)(F)F)c3)[C@@H]2O1 (some centres not stated)
  16	29
- C[C@H](NC(=O)CCC(=O)N1CCc2c([nH]c3ccccc23)C1)[C@H](O)c1ccccc1
  -20	-16
- CN(C)c1ncn(Cc2c(Cl)cccc2Cl)c2ncnc1-2
  4	15
- O=C(NCc1ccccn1)C(C1CCCC1)N1CCN(C(=O)c2cccc(Br)c2)CC1 (configuration not stated)
  -8	-4
- CNC(=O)CN(CCC#N)CC(C)(C)C
  3	3
- Cc1cc(CNC(=O)CS(=O)(=O)Cc2cccc(Cl)c2)ccc1F
  4	9
- O=c1[nH]c2c(-c3nc4ccccc4s3)c(O)c(-c3ccccc3)n2c2ccccc12
  1	0
- c1coc(COc2ccc3c(C4CC4)noc3n2)c1
  0	2
- c1cc(C2CCCC2)nc(N2C[C@@H]3[C@H](C2)[C@H]2CC[C@@H]3O2)n1
  3	4
- C=CCCC(O)CN(Cc1ccc2c(c1)OCO2)Cc1ccc(C)o1 (configuration not stated)
  29	24
- COc1ccc(OC)c(C=CC(=O)Nc2nc(C)cs2)c1
  0	7
- Cc1ccccc1NC(=O)Cn1ccn2nc(-c3ccccc3)cc2c1=O
  3	4
- COC(=O)CCNC(=O)Cn1cnc2ccccc2c1=O
  3	4
- Cc1cccc[n+]1CC(=O)C=C1N(C)c2ccccc2C1(C)C
  -15	-11
- CCCN(Cc1c(-c2ccccc2)noc1N1CCCC1)C(=O)c1cccc(C)c1
  2	3
- COCCNC(=O)c1nn(-c2ccc(C(F)(F)F)cc2)c(=O)n(Cc2ccc(F)cc2)c1=O
  16	10

# Seven structures from above, sorted by length of the SMILES, ascending:
# Order of values – NPYLR7 ag max-min	NPYLR7 ag
- O=C(Cc1cccs1)NN=Cc1ccccc1Br
  -7	-5
- c1coc(COc2ccc3c(C4CC4)noc3n2)c1
  0	2
- COC(=O)CCNC(=O)Cn1cnc2ccccc2c1=O
  3	4
- Cc1cccc[n+]1CC(=O)C=C1N(C)c2ccccc2C1(C)C
  -15	-11
- O=C(Cn1cc(-c2ccccc2)c(N2CCOCC2)n1)Nc1ccc(Cl)cc1
  -10	-10
- CCCN(Cc1c(-c2ccccc2)noc1N1CCCC1)C(=O)c1cccc(C)c1
  2	3
- O=C(c1ccc(F)c(F)c1)N1CCN(Cc2ccc(-c3noc(-c4cccnc4)n3)cc2)CC1
  10	8

# Screening data: PubChem BioAssay, Fisher Drug Discovery Resource Center

# Only part of the results is shown, so the mix of outcomes need not match the whole.
